Screening data (PubChem)
HCMV UL50-53 inh – inhibitors of HCMV UL50-UL53 interaction, biochemical, HTRF. HCMV UL50-UL53 nuclear egress complex (human cytomegalovirus). normalized percent inhibition. inhibition, % (concentration not given with the values). hit rate 0.15% among 190,000;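 active means both replicates at 50% or more, plus weaker picks with an unusually low signal ratio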;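 further: stock transfer was 100 nL into about 20 µL; 0% = negative control wells and 100% = wells with untagged competitor protein; inactives centre near -12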
Sa growth inh – S. aureus growth inhibition at 42 and 30 °C, primary screen, LtaS inhibitor project, RN4220, two temperatures | OD600, 20 h, 42 °C; active compounds read low | relative growth, % (test concentration not listed) | hit rate 0.53% among 170,000;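 active means growth at 42 °C up to 50% and 20 or more points under that at 30 °C, or under 10% at both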;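 further: 300 nL library stock went into each well; scaled to the means of positive and negative controls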
GIV-Gai inh – inhibitors of GIV peptide binding to Galpha-i3, primary screen, biochemical, fluorescence polarization, FITC-GIV GBA peptide, rat Galphai3; Guanine nucleotide-binding protein G(i) subunit alpha-3 (Rattus norvegicus), P08753; 90 min; active compounds read low; scaled: aluminum fluoride 0%, vehicle 100%; percent of control (FP), % (concentration not given with the values); hit rate 0.42% among 210,000;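 active means replicate mean at 85% of control or lower, very high polarization wells dropped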;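 further: wells of about 15 µL received 100 nL stock; the first replicate is given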
Target sequence (P08753 whole entry, looked up): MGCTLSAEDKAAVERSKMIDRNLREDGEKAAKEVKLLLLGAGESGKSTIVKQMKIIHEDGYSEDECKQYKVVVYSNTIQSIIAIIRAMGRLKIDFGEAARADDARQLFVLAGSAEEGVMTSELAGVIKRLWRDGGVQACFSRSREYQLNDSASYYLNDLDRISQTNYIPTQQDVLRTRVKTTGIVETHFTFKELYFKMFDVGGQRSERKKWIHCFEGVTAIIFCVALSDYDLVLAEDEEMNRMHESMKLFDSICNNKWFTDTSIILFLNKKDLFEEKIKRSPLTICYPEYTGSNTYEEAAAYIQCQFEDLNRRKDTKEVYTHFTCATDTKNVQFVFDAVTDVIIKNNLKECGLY
Sa growth inh second temp – second read-out of Sa growth inh, no call of its own (marks repeat the call); relative growth, %; measured here: growth at 30 °C;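 optical density after 20 h as mean of two plates; 100% = untreated growth and lower means inhibition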
* = called active by the depositor; · = no result given; & = joins results of further samples.

The opening 2 entries, to show the layout:
Results follow in this order: HCMV UL50-53 inh, Sa growth inh, Sa growth inh second temp, GIV-Gai inh
1) Cc1ccc(C)c(CC2C(=O)Nc3ccc(C)cc32)c1 (stereo unspecified)
    -14, ·, ·, 99
2) CCCc1nc2sc3c(c2c(=O)[nH]1)CCCC3
    -8, 100, 91, ·

Results, from the first entry:
Results follow in this order: HCMV UL50-53 inh, Sa growth inh, Sa growth inh second temp, GIV-Gai inh
1) Cc1ccc(C)c(CC2C(=O)Nc3ccc(C)cc32)c1 (stereo unspecified)
    -14, ·, ·, 99
2) CCCc1nc2sc3c(c2c(=O)[nH]1)CCCC3
    -8, 100, 91, ·
3) O=C(Nc1ccccc1)N1CCC(c2nc(-c3ccccc3)no2)CC1
    -15, ·, ·, 101
4) CCC1CCCCN1S(=O)(=O)c1ccc2c(c1)CCCN2C(C)=O (stereo unspecified)
    ·, 88, 90, 99
5) COc1ccc(C2NCCc3cc(OC)c(OC)cc32)cc1 (stereo unspecified)
    0, 99, 92, ·
6) COc1ccc(Cc2nnc(SCCN3C(=O)c4ccccc4C3=O)n2N)cc1
    -20, 84, 92, ·
7) O=C(OCc1ccccc1)/C(=C/c1cccs1)c1cccs1
    -9, 98, 94, ·
8) N=c1n(CCO)c2ccccc2n1Cc1ccccc1F
    -4, 96, 85, 102
9) Cc1cc(NC(=O)C2CCN(C(=O)OCc3ccccc3)CC2)n(C)n1
    -19, 96, 80, 103
10) COC(=O)/C=C1/OC(c2ccc(Cl)cc2)=CC1=O
    -26, 113, 96, 199
11) CCC(C)NC(=O)c1cc(-c2ccc(OC)c(OC)c2)no1 (stereo unspecified)
    -21, 85, 84, 103
12) COC(=O)Cn1c(O)c(N=NC(=O)Cn2nnc3ccccc32)c2ccccc21
    -13, 100, 87, ·
13) CCOc1ccc(-n2cc(-c3ccccc3)c3c(Nc4cccc(F)c4)ncnc32)cc1
    ·, 105, 88, 101
14) O=[N+]([O-])c1ccc(C(c2sc3nc(-c4ccco4)nn3c2O)N2CCN(Cc3ccccc3)CC2)cc1 (stereo unspecified)
    ·, 134, 79, 97
15) Nc1c(C(=O)N2CCCC2)sc(=S)n1Cc1ccccc1
    -35, ·, ·, 102
16) CCOC(=O)c1cnn(-c2ccccc2)c1NC(=O)C(C)(C)C
    -5, 123, 81, ·
17) CCOC(=O)C1CCCN(C(=O)CSc2ccc(Br)cc2)C1 (stereo unspecified)
    -10, 107, 87, ·
18) CCOC(=O)C1=C(N)Oc2cc(C)oc(=O)c2C1c1cccc(Br)c1 (stereo unspecified)
    -23, ·, ·, 103
19) CC(=O)Nc1ccc(Oc2cnc3ccccc3n2)cc1
    2, ·, ·, 105
20) COC(=O)c1c(C)oc(C)c1S(=O)(=O)Nc1c(-c2ccccc2)c(C(F)(F)F)nn1C
    6, 116, 95, 103
21) COC(=O)c1ccc(Nc2ncnc3c2cnn3-c2ccccc2)cc1
    ·, 121, 92, 104
22) CC(=O)N1c2ccc(C)cc2C2=NNC(=S)NC21O (stereo unspecified)
    -35, 90, 89, 104
23) CCC(CC)N1CCN(S(=O)(=O)c2ccc(NC(C)=O)cc2)CC1
    9, 107, 93, 105
24) CCCn1c(=O)c2sccc2n2c(CCCC(=O)Nc3cccc(CC)c3)nnc12
    ·, 127, 89, 106
25) Cc1ccc(Cl)cc1N1CCN(c2nc3ccccc3c3nc(-c4cccnc4)nn23)CC1
    2, 80, 110, 107
26) Cc1ccc2cc(-c3noc(CCC(=O)NC(C)(C)C)n3)c(=O)[nH]c2c1
    -52, ·, ·, 106
27) CCC1C(=O)N=C(SCC(=O)NCc2ccccc2)NC1=O (stereo unspecified)
    -2, 94, 91, 103
28) CCN1C(=O)c2ccccc2Sc2ccc(NC(=O)COc3ccc(Cl)cc3)cc21
    ·, 110, 95, 106
29) CCCC(=O)Oc1c(Sc2ccc(C)cc2)c(C)nn1-c1ccccc1
    2, 50, 26, 101
30) CCOC(=O)c1c(N2C(=O)C=CC2=O)sc(C)c1-c1ccccc1
    -13, 68, 69, 105
31) COc1ccc(Cl)cc1Nc1c2c(nc3nc(C)nn13)CCC2
    8, ·, ·, 108
32) CN(C)S(=O)(=O)c1ccc2nnn(OCC(=O)NCc3ccco3)c2c1
    -8, 97, 102, ·
33) CC1=C(C(=O)Nc2ccc(C)cc2C)C(c2ccc(Cl)cc2)n2nc(C(=O)OC(C)C)nc2N1 (stereo unspecified)
    -70, 97, 93, 97
34) O=S(=O)(Nc1ccccc1)c1ccccc1
    5, 85, 109, ·
35) CN1/C(=C\C(=O)COC(=O)C(C)(C)C)C(C)(C)c2ccccc21
    -30, 115, 91, ·
36) CCc1ccccc1NC(=O)C1CC(c2ccccc2OC)=NO1 (stereo unspecified)
    -11, 96, 91, 101
37) CCOC(=O)c1oc2ccccc2c1COC(=O)Cn1cnnn1
    -37, 83, 91, ·
38) CCOC(=O)CNC(=O)Nc1cc(C(=O)NCc2ccccc2OC)ccc1N1CCCC1
    ·, 91, 89, 103
39) COc1ccc(NC(=O)Nc2cc(-c3cn4cccnc4n3)ccc2C)cc1
    -30, 110, 91, 106
40) S=C(c1ccc(-c2ccc(Cl)cc2)o1)N1CCN(c2ccccc2)CC1
    -10, 91, 76, ·
41) Nc1cccc(OCC(=O)N2CCOCC2)c1
    -1, 99, 93, 105
42) Cc1noc(C)c1S(=O)(=O)Nc1ccccc1
    -8, 92, 92, 104
43) Cc1c(NS(=O)(=O)c2ccccc2)cc(C(C)C)c(O)c1S(=O)(=O)c1ccc(Cl)cc1
    7, 103, 92, 110
44) CCN(CC)S(=O)(=O)c1ccc(Nc2nc(SC)nc3c2CCC3)cc1
    -10, ·, ·, 105
45) CSc1cccc(NC(=O)CC2(CC(=O)O)CCCC2)c1
    3, 129, 102, 100
46) OCCSc1nc2ccccc2s1
    3, 111, 120, 108
47) CCn1c(CNC(=O)c2ccc3c(c2)OCO3)nnc1SCC(=O)NC1CCCCC1
    -22, 89, 79, 103
48) NC(=O)Cn1c(S(=O)(=O)Cc2ccccc2)nc2ccccc21
    -9, 97, 87, 101
49) Cc1cccc(Nc2cc(N3CCOCC3)ncn2)c1
    -19, 90, 92, 102
50) COc1ccccc1N1CCN(C(=O)c2nn(-c3ccc(C)cc3)c(=O)n(C)c2=O)CC1
    ·, 101, 87, 101

(more compounds)
Results follow in this order: HCMV UL50-53 inh, Sa growth inh, Sa growth inh second temp, GIV-Gai inh
51) CCSc1nnc(NC(=O)C2CC=CCC2C(=O)O)s1 (stereo unspecified)
    -16, 96, 89, ·
52) CCOC(=O)C1CCN(C(=O)COC(=O)c2c(C)c(CC)nc3ccccc23)CC1
    2, 102, 95, ·
53) C=Cc1ccc(COc2cc3c(C(=O)OCC)c(CSc4ccccc4)n(C)c3cc2Br)cc1
    -10, ·, ·, 102
54) Cc1nn(C)c2c1c(-c1ccccc1)cc(=O)n2Cc1ccccc1C#N
    ·, 97, 105, 106
55) CN(Cc1ccccc1)C(=O)COC(=O)c1cc(=O)c2ccccc2o1
    -11, 109, 101, ·
56) CN(C)S(=O)(=O)c1cccc(C(=O)NC2CCCCCC2)c1
    5, 112, 97, ·
57) CC(C)(C)NC(=O)N1CCC(C(=O)c2ccccc2)CC1
    -4, 99, 93, 100
58) CCn1cc(C(=O)NCCc2ccccc2)c(=O)c2cc(S(=O)(=O)N3CCOCC3)ccc21
    -13, 93, 91, 102
59) CC1(C)Cc2nc(NCCO)c(C#N)cc2CO1
    -24, 94, 85, 103
60) NNC(=O)CS(=O)(=O)c1ccc(Cl)cc1
    -6, 100, 84, 103

Part of the list above, screen by screen.
59: CC1(C)Cc2nc(NCCO)c(C#N)cc2CO1
55: CN(Cc1ccccc1)C(=O)COC(=O)c1cc(=O)c2ccccc2o1

Compound	59	55
HCMV UL50-53 inh	-24	-11
Sa growth inh	94	109
Sa growth inh second temp	85	101
GIV-Gai inh	103	·

Other results:
Results follow in this order: HCMV UL50-53 inh, Sa growth inh, Sa growth inh second temp, GIV-Gai inh
61) Cc1cccc(OCCn2c(-c3ccc(Cl)cc3)nc3ccccc3c2=O)c1
    19, 96, 105, 104
62) c1ccc(-c2nnc3ccc(N4CCN(C(c5ccccc5)c5ccccc5)CC4)nn23)cc1
    -12, ·, ·, 101
63) COc1cc(S(=O)(=O)Nc2cc3oc4ccccc4c3cc2OC)ccc1NC(C)=O
    -22, 92, 87, ·
64) O=c1cc(C(F)(F)F)nc2cc(-c3ccccc3)[nH]n12
    -26, 93, 86, 92
65) CCCN(CC1CC1)c1nc(C)nc(Nc2c(Cl)cc(Cl)cc2Cl)c1Cl
    0&-15, ·, ·, 95
66) CC1(C)C(=O)NN(c2ccc(Cl)cc2)C1=O
    -5, ·, ·, 106
67) Cn1nnc2cc(NC(=O)NC3CCCCC3)ccc21
    -16, 100, 85, 98
68) CC1CCCC(NC(=O)CCCn2c(=O)c3cccn3c3cccnc32)C1C (stereo unspecified)
    -22, 92, 88, 103
69) O=C(O)c1ccc2c(c1)NC(=O)C(CSCc1cccc(F)c1)N2 (stereo unspecified)
    -57, 89, 73, 103
70) COc1ccccc1C(=O)NCC(c1cccnc1)N1CCc2ccccc2C1 (stereo unspecified)
    -18, 107, 91, 105
71) COc1ccccc1NC(=O)CC(=O)Nc1ccc2nc3n(c(=O)c2c1)CCCCC3
    -14, ·, ·, 96
72) COc1cccc(/C=C/C(=O)Nc2ccc3nc4n(c(=O)c3c2)CCCC4)c1OC
    -12, 104, 93, 104
73) O=C(Cn1c(SCc2ccc(F)cc2)nc2cccnc21)NCCc1ccccc1
    -9, ·, ·, 107
74) Cc1cccc2nc(CSc3nncn3-c3ccccc3F)cc(=O)n12
    4, 102, 85, ·
75) CC(C)C(=O)/C(C#N)=N/Nc1ccc(F)cc1
    -50, 8.0*, -0.7*, 103
76) CCN1CCN(C(=O)c2cn(C)nc2-c2ccc3c(c2)OCCCO3)CC1
    -21, 96, 94, ·
77) CCc1ccc(C2C(c3ccccc3)=C(O)C(=O)N2c2ccc(Cl)cc2)cc1 (stereo unspecified)
    -36, ·, ·, 101
78) O=C(CCc1ccccc1)NCCc1nc(-c2ccc(Cl)cc2)n[nH]1
    1, ·, ·, 96
79) COc1ccc2c(c1)C(=O)N(c1ccccc1C)C(=O)C2(C)C
    2, 115, 101, ·
80) Cn1c(=O)n(C)c2cc(CNC3CC3)ccc21
    -12, ·, ·, 101

Retrieved by structure from above (three):
Results follow in this order: HCMV UL50-53 inh, Sa growth inh, Sa growth inh second temp, GIV-Gai inh
79) COc1ccc2c(c1)C(=O)N(c1ccccc1C)C(=O)C2(C)C
    2, 115, 101, ·
74) Cc1cccc2nc(CSc3nncn3-c3ccccc3F)cc(=O)n12
    4, 102, 85, ·
80) Cn1c(=O)n(C)c2cc(CNC3CC3)ccc21
    -12, ·, ·, 101

(listing goes on)
Results follow in this order: HCMV UL50-53 inh, Sa growth inh, Sa growth inh second temp, GIV-Gai inh
81) O=C1/C(=C/c2ccccc2)SC(=S)N1C1CCS(=O)(=O)C1 (stereo unspecified)
    -2, 101, 87, ·
82) COc1ccc(N2C(=O)c3ccccc3S2(=O)=O)cc1
    ·, 118, 87, 98
83) COc1cc2c(cc1NC(=O)COc1cc(C)ccc1C)oc1ccccc12
    -22, 107, 95, 99
84) COc1ccccc1-c1nc2cc(NC(=O)c3ccccc3Cl)ccc2o1
    -41, 91, 80, 102
85) O=S(=O)(/C=C/c1ccccc1)Nc1ccccc1
    ·, 156, 89, 100
86) Cc1ccc2oc(=O)c3cnn(CC(=O)NCC4(c5ccccc5)CCCC4)c3c2c1
    ·, 75, 87, 104
87) COc1ccc(-c2nc(Cn3c(SCc4cc(C)ccc4C)nc4ccncc43)c(C)o2)cc1OC
    -8, ·, ·, 102
88) Cc1ccc(NC(=O)N2CC=C(c3c[nH]c4ccccc34)CC2)cc1Cl
    0, 83, 36, 163&116
89) CCCn1c(C)ccc(-c2noc(CCCC(=O)N3CCOCC3)n2)c1=O
    -5, ·, ·, 112
90) CCOc1ccc(CNC(=O)c2ccc(-c3nc(CSc4ccc(C)cc4)c(C)o3)cc2)cc1
    ·, 122, 96, 102
91) CCOc1ccc(Nc2nc(C)cc(=O)[nH]2)cc1
    -25, ·, ·, 102
92) Cc1cc(C)n(-c2nc3cc(Cl)c(Cl)cc3n3c(C)nnc23)n1
    ·, 110, 82, 103
93) Cc1csc(=O)n1CC(=O)OCc1nc2ccccc2s1
    -1, 75, 90, ·
94) CC(C)S(=O)(=O)c1cscc1NC(=O)c1ccccc1Cl
    -3, 102, 93, 100
95) NS(=O)(=O)c1ccc(CNS(=O)(=O)c2cccc3nonc23)cc1
    -99, 93, 92, 106
96) CCOC(=O)c1c(C)[nH]c(C)c1C(=O)CSc1ncccn1
    -16, 84, 90, ·
97) COC(=O)c1sc(=S)n(-c2ccc(Cl)cc2)c1C
    ·, 91, 82, 102
98) CC1CCCCC1NC(=O)Cn1nc(C(=O)O)c2ccccc2c1=O (stereo unspecified)
    0, 111, 93, ·
99) Cc1noc2c1C(c1ccccc1)C1=C(CC(c3ccc(O)cc3)CC1=O)N2 (stereo unspecified)
    -12, ·, ·, 106
100) CC(=O)Nc1cccc(C(=O)N2CCN(c3ccccc3)CC2)c1
    -19, 96, 95, 106
